# Autofluor counter: flagged as autofluorescent in microsphere protease counterscreen; compound autofluorescence counterscreen, microsphere flow cytometry; stronger effect = higher value; fluorescence intensity (concentration not given with the values); 360,000 tested, 3.1% active; AID 624483;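 active = at least 3 SD above the mean of all compounds, about 16000 in these data; inconclusive = too few beads counted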;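 also: 100 nL of 1 mM stock went into each well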
# PrP UTR inh: suppresses PrP 5' UTR mRNA reporter expression | cell-based PrP 5' UTR mRNA reporter, plate reader | inhibition, % (concentration not given with the values) | 340,000 tested, 0.35% active;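 active = every replicate at 50% or more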;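 also: 0 = median of the neutral control wells; tested in H4 reporter cells; numbers are from one replicate; inactives centre near -14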
# ugtP null kill: compounds lethal to S. aureus RN4220 ugtP deletion mutant | OD600 growth, 16 h; some inactives read as strong as hits | growth inhibition, % (test concentration not listed) | 330,000 tested, 0.54% active | AID 1259309;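 active = z-score under -3 and OD600 up to 0.15 on both plates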;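 also: plate controls were untreated wells for no effect and antibiotic for full effect; wells of about 80 µL received 100 nL stock; the first replicate is given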
# Sa RN4220 lethal: kills Staphylococcus aureus RN4220; S. aureus RN4220 growth, OD600, 16 h; inhibition, % (no concentration beside the values); 330,000 tested, 0.33% active; AID 1259311;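 active = z-score of -3 or lower and OD600 up to 0.18 on both plates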;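 also: plate controls were untreated cells for no effect and reference antibiotic for full effect; stock transfer was 100 nL into about 80 µL; one replicate is shown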
# BJeLR viability: kills HRASV12-expressing BJeLR cells; inhibition, % (no concentration beside the values); 300,000 tested, 0.17% active; BJeLR (HRASV12) viability, CellTiter-Glo ATP luminescence, 48 h; reference of the scale not given here;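 active = replicate mean above 50%; inconclusive = above 50% but judged a plate artefact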;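 also: 50 nL library stock added to about 25 µL; numbers are from one replicate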
# Mtb hypoxia rep: reduces hypoxia-regulated biosensor signal in M. tuberculosis. AID 1159583. 300,000 tested, 0.1% active. M. tuberculosis hypoxia-regulated fluorescent reporter, fluorescence. fluorescence inhibition, % (no concentration beside the values);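 active = 35 to 45% if threefold the growth effect, above 45% if 1.5-fold the growth effect; inactive = the rest, general growth blockers included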;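 also: wells of about 50 µL received 100 nL stock; 0% = vehicle wells and 100% = reference inhibitor wells; whole bacteria with a GFP reporter of the hypoxia response; strong numbers were not always called active; many hits fall short of the cut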
# Mtb hypoxia rep growth: recorded beside Mtb hypoxia rep, whose call it bears; growth inhibition, %; measured here: M. tuberculosis growth (absorbance);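 0% = vehicle and 100% = reference antibiotic; read after six days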
# Numbers without * were called inactive; ? = inconclusive; / = not tested or not shown.
# The first two records, ahead of the listing:
SMILES,Autofluor counter,PrP UTR inh,ugtP null kill,Sa RN4220 lethal,BJeLR viability,Mtb hypoxia rep,Mtb hypoxia rep growth
CN1C(=O)C(O)(CC(=O)c2ccccn2)c2cc(Br)ccc21 (stereo not given),2778,-27,-10,-6.6,-8,11,9
CCc1c(C)c(C#N)c2[nH]c3ccccc3n2c1=S,3599,-21,92*,93*,27,2,3

# The listing (from the top)
SMILES,Autofluor counter,PrP UTR inh,ugtP null kill,Sa RN4220 lethal,BJeLR viability,Mtb hypoxia rep,Mtb hypoxia rep growth
CN1C(=O)C(O)(CC(=O)c2ccccn2)c2cc(Br)ccc21 (stereo not given),2778,-27,-10,-6.6,-8,11,9
CCc1c(C)c(C#N)c2[nH]c3ccccc3n2c1=S,3599,-21,92*,93*,27,2,3
CCC(C)NC(=O)c1ccc(Cl)c(S(=O)(=O)Nc2ccccc2N2CCOCC2)c1 (stereo not given),3945,-12,0,1.5,/,-2,4
O=[N+]([O-])c1c(NCCO)cc(N2CCCCC2)c2nonc12,2157,-24,9,-0.9,-4,3,-6
Cc1cccc(N(C)C(=S)Oc2ccc3ccccc3c2)c1,5070,-8,25,2.9,0,-2,8
C=CCn1c(SCC(=O)NCC2CCCO2)nc2sc(CC)cc2c1=O (stereo not given),8455,-13,1,2.9,/,2,4
CCN1CCN(Cc2c(C(=O)N/N=C(\C)c3ccc(Cl)cc3)nnn2-c2nonc2N)CC1,5804,-27,/,/,1,/,/
C=C(C)CSc1nnc2[nH]c(=O)cc(N)n12,2658,-10,3,2.1,-5,4,6
COc1ccc(/C=N/Nc2nccnc2Cl)c(OC)c1,4797,-50,/,/,10,/,/
COc1cccc(C(=O)NCc2ccc3[nH]c(C)cc3c2)c1,2008,-11,6,1.2,14,-3,7
CN(C)S(=O)(=O)c1cccc(CSCc2cccc(S(=O)(=O)N(C)C)c2)c1,3865,-3,4,4.5,14,3,-1
Cc1ccc2c(Cl)cc(Cl)c(OCC(=O)NCCc3ccccn3)c2n1,3380,-23,8,3.0,2,6,9
CCCNC(=O)NC(=O)CSc1nnc(C)n1N,3156,-7,-5,-11,/,17,4
CCCCC(=O)NC(NC(=S)N1CCCCCC1)C(Cl)(Cl)Cl (stereo not given),2520,-16,-5,0.4,-5,-6,-2
COc1ccccc1C(=O)Nc1c(C)cc(Br)cc1C,2039,-16,-4,5.0,-8,-17,12
COc1ccc(OC)c2sc(NNC(=O)C3COc4ccccc4O3)nc12 (stereo not given),4243,-6,-5,2.7,/,15,5
Cc1cc(C)n(-c2cccc(F)n2)n1,4226,-18,1,0.9,2,-8,-12
CN(C)c1ccc(C(CN)c2c[nH]c3ccccc23)cc1 (stereo not given),5586,-26,-4,3.4,4,-5,2
CCN(CC(N)=O)S(=O)(=O)c1ccc(Br)cc1,8469,-20,7,1.1,-3,7,2
CCCC/C(O)=C/c1nc2ccccc2[nH]c1=O,2065,-19,-14,-3.4,-1,/,/
O=C(N/N=C/c1ccccn1)c1cc(-c2ccncc2)nc2ccccc12,2503,-33,/,/,7,/,/
O=C(c1ccccc1F)N1CCCC(c2ccccc2)C1 (stereo not given),8178,-12,-3,0.5,6,8,-15
COc1ccc(-c2cc(C)no2)cc1S(=O)(=O)NCCCN(C)Cc1ccccc1,6078,-31,13,4.0,4,5,4
Cn1c(CCN2CCN(c3ccccc3)CC2)nc2cc(NC(=O)c3ccco3)ccc21,4514,-14,11,6.8,-6,-58,20
CC(=O)c1c(C)[nH]c(C(=O)N2CCN(S(=O)(=O)c3ccc(C)cc3C)CC2)c1C,5952,-8,4,0.4,/,-1,2
# Following part.
SMILES,Autofluor counter,PrP UTR inh,ugtP null kill,Sa RN4220 lethal,BJeLR viability,Mtb hypoxia rep,Mtb hypoxia rep growth
CCOc1ccc(C(=O)CCC(=O)N2CCN(c3ncccn3)CC2)cc1,3471,-15,5,3.7,0,14,7
CCN(CC)S(=O)(=O)c1cc(Br)ccc1OC,3648,-30,-3,7.4,-7,17,16
COc1ccc(OC)c(CNC(=O)C(C)n2nc(C)c3c(C)n(-c4ccccc4)nc3c2=O)c1 (stereo not given),5372,-4,0,1.1,1,11,5
CCCCCCCCCCCCCCCC(=O)OC/C=C(C)/C=C/C=C(C)/C=C/C1=C(C)CCCC1(C)C,5868,-9,-1,-3.9,/,/,/
NC(=O)CC1C(=O)N(c2ccccc2)C(=S)N1NC(=O)c1ccccc1 (stereo not given),2962,-15,3,-0.1,4,4,-8
CC(=O)c1ccc(C(C)(C)c2ccc(C(C)=O)s2)s1,3258,-25,2,-0.1,-5,/,/
Cc1cc(NS(=O)(=O)c2ccc(NC(=O)Nc3ccc4c(c3)OCO4)cc2)no1,16204*,-48,9,4.9,-13,17,16
CCC(C)C(NS(=O)(=O)c1ccc(C)cc1)C(=O)Oc1ccc2c3c(c(=O)oc2c1)CCC3 (stereo not given),8691,-13,37,14,2,-5,-5
Cc1cc(C)c2[nH]c(O)c(N=NC(=O)c3cc4c(s3)CCCC4)c2c1,/,/,-3,0.1,1,1,3
CC(C)OCCCNC(=O)CN1C(=O)/C(=C/c2ccccc2F)Oc2ccccc21,3682,-12,15,2.4,-3,1,11
CCCCCn1c(CN2CCN(c3cc(Cl)ccc3C)CC2)nc2c1c(=O)[nH]c(=O)n2C,11320,-43,-9,2.4,10,4,9
CN1CCN(c2ccccc2NC(=O)c2cccc(OCc3ccccc3)c2)CC1,6635,-14,10,-0.4,-1,10,6
CCOC(=O)c1cc(-c2ccccc2)sc1NC(=O)COC(=O)c1ccc(Cl)c(S(N)(=O)=O)c1,4672,7,-21,-2.5,-18,-9,1
C/C(=C\c1ccccc1)C(=O)N1CCN(c2cccc(C(F)(F)F)c2)CC1,2162,-11,-11,3.6,-4,-1,2
O=C(NN=Cc1ccc2c(c1)OCO2)c1cccs1,/,/,-6,3.3,/,-2,-2
O=C(COc1ccc(Br)cc1)NCCNC(=O)c1ccccn1,5489,-22,4,-0.7,-16,10,9
CN(Cc1nc(-c2ccc(Cl)cc2)no1)C(=O)c1ccc2c(c1)OCO2,/,-31,3,1.2,-15,3,6
CC(C)C(=O)N(c1cc2sc(=O)oc2c2ccccc12)S(=O)(=O)c1cccs1,7760,-10,0,-3.5,6,2,0
CCCN1CCN(C(=O)Cn2cnc3sc(C)c(S(=O)(=O)N4CCC(C)CC4)c3c2=O)CC1,5395,-17,-3,4.0,-3,-3,-7
c1ccc(-c2ccc3nnnn3n2)cc1,4437,-17,9,1.2,0,2,-6
O=C1c2ccc([N+](=O)[O-])cc2S(=O)(=O)N1Cc1ccccc1,3534,-21,22,0.3,5,9,5
CCCc1cc2c(cc1NC(=O)c1ccco1)OCO2,4640,-27,3,6.4,0,-3,6
CCCN=CC1=C(O)CC(c2ccccc2)CC1=O (stereo not given),4257,-8,-7,-1.1,6,1,3
NC(=O)c1nsc(C(=O)N(c2ccc(Cl)cc2)C(C(=O)NCC2CCCO2)c2cccs2)c1N (stereo not given),4183,-27,5,-1.1,10,-1,5
O=S(=O)(NC1=NCCC1)c1cccs1,9501,-15,8,4.3,-1,12,2

# Just BJeLR viability and Mtb hypoxia rep, for three of the compounds above:
smiles	BJeLR viability	Mtb hypoxia rep
c1ccc(-c2ccc3nnnn3n2)cc1	0	2
CCOC(=O)c1cc(-c2ccccc2)sc1NC(=O)COC(=O)c1ccc(Cl)c(S(N)(=O)=O)c1	-18	-9
CN(Cc1nc(-c2ccc(Cl)cc2)no1)C(=O)c1ccc2c(c1)OCO2	-15	3

# Continued:
SMILES,Autofluor counter,PrP UTR inh,ugtP null kill,Sa RN4220 lethal,BJeLR viability,Mtb hypoxia rep,Mtb hypoxia rep growth
Cc1cccc(-n2ncc3c(NCCCn4ccnc4)ncnc32)c1,5747,-28,15,6.5,7,7,4
Cc1cc(OCC(=O)N2CCOCC2)ccc1[N+](=O)[O-],3079,-29,6,0.8,4,8,4
CCOc1ccc(S(=O)(=O)NCc2ccccn2)cc1NC(=O)c1ccccc1F,5971,34,-1,3.4,32,1,1
Cc1c2ccncc2c(C)c2c1[nH]c1ccccc12,13041,3,100*,98*,19,60*,16*
O=C(NC(=S)Nc1ccc(N2CCCC2)cc1)c1ccc(F)cc1,6012,-45,/,/,3,/,/
COc1ccc(CCCC(=O)NCC(=O)N/N=C/c2cc(Cl)ccc2OC)cc1,6084,-12,/,/,-3,/,/
COc1ccc(C2CC(=O)C=C(c3ccc4ncccc4c3)C2)cc1 (stereo not given),/,/,5,-0.1,/,3,3
O=C(C1=C[C@@H](c2ccc(Br)cc2)C[C@@H](OCc2ccc(CO)cc2)O1)N1CCN(Cc2ccc3c(c2)OCO3)CC1,3886,1,/,/,-17,/,/
C[C@]12CC[C@H](O)CC1=CCC1C2CC[C@@]2(C)C1CC[C@@H]2NC(=O)CCC(=O)O (stereo not given in full),3608,2,6,2.8,/,7,6
CCN(c1ccccc1)P(=O)(Nc1ccccc1)Nc1ccccc1,4953,-39,7,0.5,10,7,3
Cc1cc([N+](=O)[O-])nn1CC(=O)Nc1ccc(Cl)cn1,4577,-5,-1,-0.4,-14,-4,4
CCOC(=O)C1(Cc2ccc(Cl)cc2)CCN(Cc2nccn2CC)CC1,2610,-30,14,2.6,1,13,3
COc1ccccc1NC(=O)N1CCCC1C(=O)NCc1ccccc1Cl (stereo not given),3827,-12,2,1.7,-3,8,-3
COc1ccc(C=Nn2cnc3c([nH]c4ccc(F)cc43)c2=O)cc1CSc1ccccn1,/,/,11,4.2,/,9,7
COCCNC(=O)C(=O)NCC1OCCN1C(=O)c1ccc(Cl)cc1 (stereo not given),6280,1,-1,-7.4,-11,9,10
O=C(Nc1ccc(Br)cc1)c1cc(S(=O)(=O)Nc2ccccn2)ccc1Cl,5571,5,13,2.9,4,3,5
O=C(COC(=O)Cc1cccs1)Nc1ccc(F)c(F)c1F,3444,-6,5,5.2,3,/,/
O=C(NCCc1nc2ccccc2[nH]1)/C(=C/c1ccc2c(c1)OCO2)NC(=O)c1ccccc1,2414,-6,4,2.8,5,-4,4
Clc1ccc(N=c2ssnc2Cl)cc1,3586,-15,6,20,1,15,9
COc1cccc(C(=O)c2c[nH]c(C(=O)NCCCN(C)C)c2)c1,3107,-17,7,1.9,-9,6,3
COc1cc(NS(=O)(=O)c2ccc(NC(=O)/C=C/c3ccc([N+](=O)[O-])cc3)cc2)ncn1,4530,-22,2,14,0,7,8
CC(C)C[C@H](NC(=O)N1CC(=O)Nc2ccccc21)C(=O)N[C@H](C(=O)O)c1ccccc1,5695,2,-8,2.1,-2,/,/
CCS(=O)(=O)n1nc(-c2ccccc2)nc1N,4681,8,-2,-1.9,3,3,11
COc1cc2cc(/C=C/C(=O)c3ccco3)c(Cl)nc2cc1OC,4079,-6,5,11,-14,22,15
Cc1ccc(CCNC(=O)CCS(=O)(=O)c2ccc(Br)cc2)cc1,2184,-20,7,0.8,3,16,15
# The listing continues:
SMILES,Autofluor counter,PrP UTR inh,ugtP null kill,Sa RN4220 lethal,BJeLR viability,Mtb hypoxia rep,Mtb hypoxia rep growth
Cc1ccc(NC(=O)CSc2nnc(CSc3nc(C)cc(C)n3)n2Cc2ccco2)c(C)c1,9600,-5,-2,-2.8,0,-1,4
Oc1ccc(/C=N/Nc2ccc(Cl)nn2)c(O)c1O,3426,2,/,/,0,/,/
Cc1ccc(/C=C2/NC(=O)N(Cc3ccccc3)C2=O)s1,11374,/,-4,1.9,10,9,4
COc1ccccc1OCC(=O)/C=C1/N(C)c2ccccc2C1(C)C,5515,-4,-1,0.0,0,12,11
CC(=O)OCc1c(C(F)(F)F)nn(C)c1SCc1ccc(Cl)cc1,?,-2,-10,-6.2,-2,11,8
COC(=O)c1ccc(CNC(=O)COC(=O)CCC(=O)c2ccc(F)cc2)cc1,7035,-16,8,0.8,/,4,0
CC(Cc1ccccc1)=NNS(=O)(=O)c1ccc([N+](=O)[O-])cc1,3947,-10,-3,14,/,3,5
O=C(COC(=O)c1ccccc1NC(=O)c1ccco1)NCCC1=CCCCC1,2988,-19,-16,-1.4,-1,1,7
CC(C)n1c(C=Cc2ccccc2)nc2ccccc21,/,/,15,9.9,/,11,14
Cc1ccc(S(=O)(=O)NCCNS(=O)(=O)c2ccccc2Br)cc1,4099,-18,0,5.6,/,1,8
CCOC(=O)C1=C(c2ccccc2)NC(SCC(=O)Nc2ccc(C)cc2)=C(C#N)C1c1ccco1 (stereo not given),10772,-8,-15,2.5,-2,11,1
